Vaccinia mCherry: qHTS for Stage-Specific Inhibitors of Vaccinia Orthopoxvirus: mCherry Reporter Primary qHTS; Vaccinia virus mCherry reporter infection, fluorescence; about a quarter of the inactives have no number; Potency, µM (highest dose often 36.5 µM), without a hit: top-dose activity change, negative = inhibition, usual class: inhibitors; 310,000 compounds, 0.63% hits; AID 720579, 2013; active = well fitted inhibition curve with a large enough effect; inconclusive = small, poorly fitted or top-dose-only effect; inactive = no such curve, though single readings can be large or run the other way; tested in A549 cells; note: nearly all actives have a fitted effect of over 35% in size; inactives centre near -10
VACV Venus inh: qHTS for Stage-Specific Inhibitors of Vaccinia Orthopoxvirus: Venus Reporter Primary qHTS | 330,000 compounds, 0.46% hits | Vaccinia virus Venus reporter expression, fluorescence | Potency, µM (top dose mostly 36.5 µM), without a hit: at the highest dose activity change, negative = inhibition, hits mostly inhibitors; active means well fitted inhibition curve with a large enough effect; inconclusive means small, poorly fitted or top-dose-only effect; inactive means no such curve, though single readings can be large or run the other way; tested in A549 cells; note: nearly all actives have a fitted effect of over 30% in size; inactives centre near -10
Starred values were filed as active, the others as inactive; i = inactive; u = inconclusive; x = not tested or not shown; [ ] = another dose, or the depositor's remark. % is set by controls: 0 for no effect and ±100 for the full control effect; potency is the fitted concentration of half-maximal effect.

Below each SMILES – VACV Venus inh, Vaccinia mCherry
COc1ccc(NC(=S)N(CCCN2CCN(C)CC2)Cc2cccs2)cc1
→ -4%, -13%
COc1ccc(NC(=O)CCc2c(C)nc3c(-c4ccccc4)c(C)nn3c2C)cc1Cl
→ -3%, -13%
Cc1ccc(-c2csc(-c3c(N)c(C(=O)c4ccc5c(c4)OCO5)n4ccccc34)n2)cc1
→ -4%, -19%
Cc1ccc(-c2cc(-c3ccc(F)cc3)n[nH]2)c(O)c1
→ u, -29%
CC1CC(=O)Nc2ccccc2N1S(=O)(=O)c1ccc(C#N)cc1 (centres undefined)
→ -2%, -1%
CCN(CC)S(=O)(=O)c1ccc(NC(=O)C2CCCN(C(=O)c3ccc(Cl)cc3)C2)cc1 (centres undefined)
→ u, u
COc1cccc2cc(C(C)N(CCCN3CCOCC3)C(=S)Nc3cc(C)ccc3C)oc12 (centres undefined)
→ -9%, -12%
O=C(O)c1cccc(N2CCCCS2(=O)=O)c1
→ -2%, -6%
O=C(O/N=C(/c1ccccc1)c1ccncc1)c1ccccc1[N+](=O)[O-]
→ -10%, -1%
CCOc1cccc(C(=O)Nc2ccc(S(=O)(=O)N(Cc3ccccc3)c3ccccc3)cc2)c1
→ -25%, u
CCOC(=O)c1sc(NC(=O)CSc2nc(C)cc(C)c2C#N)c(C#N)c1C
→ -6%, -8%
CN(C)c1ncc(CN2CCC(C(=O)Nc3ccc(-n4cccn4)cc3)CC2)s1
→ -8%, i
CCC1OC2(C)OC(=N)C1(C#N)C(C#N)(C#N)C2c1ccccc1 (centres undefined)
→ 35%[activator], 3%
CCN(CC)S(=O)(=O)c1ccc(OC)c(NC(=O)c2ccc(OC)c([N+](=O)[O-])c2)c1
→ -13%, -6%
NC(=O)COC(=O)CNC(=O)c1sc2ccccc2c1Cl
→ -12%, -3%
Cc1ccc(C(=O)COC(=O)c2cccc(N3C(=O)c4c(C)nc5ccccc5c4C3=O)c2)cc1C
→ 2%, 4%
CN(c1ccc(C(=O)NCc2ccccn2)cc1)S(C)(=O)=O
→ -2%, i
COc1cc(CC(=O)Nc2ccc3c(c2)CCC3)cc(OC)c1OC
→ -20%, -12%
COc1ccc(CCNC(=O)c2ccc(Cn3c(=O)c4ccccc4n(Cc4ccc(C)cc4)c3=O)cc2)cc1OC
→ -25%, u
CC(C)C(=O)n1nc(-c2cccnc2)nc1NCc1cccs1
→ -6%, i
COC(=O)c1ccc(C(=O)OC)c(NC(=O)CCc2ccc(C)o2)c1
→ 0%, -2%
Cn1ncc(Cl)c1C(=O)NCc1cc(C(C)(C)C)n[nH]1
→ -26%, -26%
CCCn1c(=N)n(CCOc2ccc(OC)cc2)c2ccccc21
→ -21%, -9%
O=S(=O)(O)c1nc2ccccc2n1CCOc1ccccc1
→ -17%, i
CSc1nc2[nH]c(=O)[nH]c2c(=O)[nH]1
→ -5%, -15%
NC(=O)NCC(N)C(=O)O (centres undefined)
→ 7%, -10%
CON(C)C(=O)/C=C/c1ccc([B-](F)(F)F)cc1
→ -13%, -12%
COc1ccc(N2C(N)=C(C#N)C(c3cccnc3)C3=C2CC(C)(C)CC3=O)cc1 (centres undefined)
→ -18%, x
Nc1c(C(=O)NCc2ccccc2)sc2nc(N3CCOCC3)c3c(c12)CCCC3
→ -28%, -12%
O=C(CSc1nnc(-c2ccco2)n1-c1ccccc1)NCCc1ccccc1
→ 2%, -9%[1.46 µM]
COc1cccc(C(=O)c2cn(CC(=O)Nc3cccc(Cl)c3C)c3nc(C)ccc3c2=O)c1
→ -3%, -15%
O=C(O)c1ccc(S(=O)(=O)/N=C2\C=C(Nc3ccccc3F)C(=O)c3ccccc32)cc1
→ u, u
O=C(c1ccccc1)n1nc(-c2ccco2)nc1NCc1ccccc1Cl
→ -11%, -16%
CCN1C(=O)[C@H]2[C@@H](c3ccc(-c4ccc(Cl)c(Cl)c4)cc3)N[C@@](CC(C)C)(C(=O)OC)[C@H]2C1=O
→ -29%, -7%
CCOC(=O)N1CCN(C(=O)c2ccc3c(c2)sc2nc(-c4ccc(OC)cc4)cn23)CC1
→ u, -12%[1.46 µM]
C#CCOc1ccc2ccccc2c1/C=C(/C#N)c1ccc(C(=O)O)cc1
→ -5%, -3%
c1ccc(-c2cnc(SCCN3CCOCC3)n2CC2CCCO2)cc1 (centres undefined)
→ -3%, -15%
N#C/C(=C\c1cn(-c2ccccc2)nc1-c1ccccc1)S(=O)(=O)c1ccccc1
→ -11%, -1%
COC(=O)CCC(=O)OC
→ 0%, 3%
COc1cc(NS(=O)(=O)c2cccc3nsnc23)cc(OC)c1
→ -10%, -15%

Structures shown so far containing a nitro group on carbon:
Below each SMILES – VACV Venus inh, Vaccinia mCherry
O=C(O/N=C(/c1ccccc1)c1ccncc1)c1ccccc1[N+](=O)[O-]
→ -10%, -1%
CCN(CC)S(=O)(=O)c1ccc(OC)c(NC(=O)c2ccc(OC)c([N+](=O)[O-])c2)c1
→ -13%, -6%

Additional entries
Below each SMILES – VACV Venus inh, Vaccinia mCherry
O=C(NCc1ccccc1)c1cc(-c2ccncc2)nc2ccc(S(=O)(=O)N3CCOCC3)cc12
→ -7%, -8%
O=C(Nc1ccc(Cl)cc1)Nc1ccccc1C(=O)NCc1ccco1
→ -11%, -19%
CC(=O)c1cccc(N/C=C\C(=O)c2ccc(C)cc2)c1
→ -17%, -12%
Cc1ccc2nc(-c3cccc(N)c3)[nH]c2c1
→ -16%, -21%
CC(NC(=O)C1CCOCC1)c1nnc2n1CCN(Cc1ccc3ccccc3c1)CC2 (centres undefined)
→ -2%, -15%
CCOC(=O)c1c(NC(=O)Cc2coc3cc(C)ccc23)sc2c1CCCC2
→ -16%, -3%
Cc1cc(C=O)c(C)n1C(C)C
→ -11%, i
O=C1CN(N=Cc2ccco2)C(=O)N1
→ 2%, -15%
COCCCNC(=S)N1CCN(S(C)(=O)=O)CC1
→ -25%, -20%
CCN(C(=O)Cn1cnc2cc([N+](=O)[O-])ccc2c1=O)C1CCS(=O)(=O)C1 (centres undefined)
→ -10%, -3%
CCOc1ccc(C(=O)NC2CC(=O)N(c3ccc(C)cc3)C2)cc1OCC (centres undefined)
→ -5%[7.34 µM], -8%[7.34 µM]
COc1ccc(C(=O)/C=C/Nc2c(C)n(C)n(-c3ccccc3)c2=O)cc1OC
→ -14%, -21%
CCOCC(O)CS(=O)(=O)c1ccccn1 (centres undefined)
→ -5%, -8%
CC(=O)Nc1ccc(NCc2ccc(-c3ccccc3)cc2)cc1
→ -15%, u
CCC1CCCCN1C(=O)CSc1nnc2nc(C)cc(C)n12 (centres undefined)
→ -10%, -11%
COc1cccc2c1Oc1ncccc1N(C(=O)CCC(=O)NCc1ccc(N(C)C)cc1)C2
→ -10%, -12%
O=C(c1ccco1)N1CCn2c1nc1ccccc12
→ -30%, x
O=C(c1ccc(CN2CCOCC2)cc1)N1CCN(c2ccccc2)CC1
→ -9%, -2%
Cc1cc(C)nc(NC(=O)NS(=O)(=O)N2CCCCCC2)n1
→ -5%, x
Cc1ccc(S(=O)(=O)N(C)C)cc1NC(=O)COC(=O)c1c(C)noc1C
→ -11%, -22%

Three of the compounds above, in markdown.
| Compound | VACV Venus inh | Vaccinia mCherry |
| --- | --- | --- |
| COc1cccc2c1Oc1ncccc1N(C(=O)CCC(=O)NCc1ccc(N(C)C)cc1)C2 | -10% | -12% |
| O=C(c1ccco1)N1CCn2c1nc1ccccc12 | -30% | x |
| O=C(c1ccc(CN2CCOCC2)cc1)N1CCN(c2ccccc2)CC1 | -9% | -2% |

Continuation.
Below each SMILES – VACV Venus inh, Vaccinia mCherry
CCCNC(=O)CCC(=O)N1Cc2ccccc2Oc2ncccc21
→ -5%, i
COc1ccc(C(=O)NCCn2cc(SCc3c(F)cccc3Cl)c3ccccc32)cc1
→ -9%, -5%
O=c1nc(Nc2cccc(Cl)c2)oc2cc(Cl)oc(=O)c12
→ u, u
Cn1cccc1C(=O)NC1CCCCC1
→ 5%, -15%
CCCCNC1(C#N)CCN(Cc2ccccc2)CC1
→ -6%, -9%
CO/N=C/CC(=O)Nc1ccc(F)cc1F
→ -17%, -4%
CC1CC(=O)NN1C(=O)c1ccccc1 (centres undefined)
→ 10%, 2%
Cc1ccccc1OC(=O)c1snnc1C
→ -6%, -4%
CC(=O)Nc1cc2c(cc1Br)-c1ccccc1C2
→ -23%, i
COC(=O)c1cc(NC(=O)Cn2ncc3c2-c2ccccc2OC3)cc(C(=O)OC)c1
→ -4%, i
CCc1nnc(NC(=O)Cc2ccc(OC)cc2)s1
→ -13%, -17%
CCS(=O)(=O)N(CC(=O)Nc1cccc2ccccc12)c1ccc(OC)cc1
→ 5%, -11%
Cc1[nH]c2ccccc2c1CCN(Cc1cccs1)C(=S)NC(C)(C)C
→ -29%, u
CCOc1ccccc1C(=O)NC(C(=O)OCn1nnc2ccccc2c1=O)C(C)C (centres undefined)
→ -3%, -1%
O=C(COC(=O)/C=C/c1nc2ccccc2s1)Nc1cccc2ccccc12
→ -9%, i
CC(C)(C)c1ccc(C(=O)N2CCOC23CCCCC3)cc1
→ -8%, 15%
CCCCOc1ccc(C(=O)Nc2cccc(-c3nc4ccccc4o3)c2C)cc1
→ -8%, -4%
Cc1ccc(NC(=O)CCC(=O)N2CCSc3ccccc32)cc1Cl
→ -4%, -12%
CC(C)c1ccc(C(C(C(=O)c2ccccc2)N2CCOCC2)N2CCOCC2)cc1 (centres undefined)
→ -1%, -23%
CCCCC(C(=O)NC(C)(C)C)N(Cc1ccco1)C(=O)c1snc(C(N)=O)c1N (centres undefined)
→ -12%, -15%
CC(C)NC(=S)N(CCc1ccncc1)C(C)C
→ -12%, i
COc1ccc2c(c1)OCC(Cc1ccc(OC)c(OC(C)=O)c1)C2=O (centres undefined)
→ u, -10%
COC(=O)c1ccc(COC(=O)c2[nH]c(C)c(C(C)=O)c2C)o1
→ u, x
CCCCC1C2=C(CC(C)(C)CC2=O)OC2=C1C(=O)CC(C)(C)C2
→ -13%, -4%
CCOC(=O)[C@]12CCCC=C1N(Cc1ccc(Cl)cc1Cl)C(=O)[C@H](CC(=O)N1CCOCC1)C2
→ -6%, -17%
Cn1c(=O)[nH]c(N)c(Br)c1=O
→ -2%, i
CCOC(=O)c1c(NC(=O)c2c(Br)cnn2C)c(C#N)nn1-c1ccccc1
→ -22%, u
O=C(COC(=O)Cc1ccc(Br)cc1)NCc1ccccc1
→ -4%, -4%
COc1cc2ccccc2cc1C(=O)NC(=S)Nc1ccc(C(=O)O)cc1
→ -19%, -15%
COC(=O)c1cccc(-n2c(C)cc(/C=C3\SC(=O)NC3=O)c2C)c1
→ -10%, -12%
COc1ccc(NC(=O)Nc2cccc3c2O[C@@H](CN(C)S(=O)(=O)c2cn(C)cn2)[C@@H](C)CN([C@H](C)CO)C3=O)cc1
→ -10%, i
C=CCNc1nc(Cl)nc(Nc2ccc([N+](=O)[O-])cc2)n1
→ -28%, -10%
COc1ccc(NC(=O)c2cn(-c3ccccc3)nc2-c2ccc(C)cc2)cc1
→ -8%, -12%
O=C(CN(c1ccccc1Cl)S(=O)(=O)c1ccccc1)NC1CC2CCC1C2 (centres undefined)
→ -26%, i
Cc1ccccc1OCC(O)CNC1CCC(NCC(O)COc2ccccc2C)CC1 (centres undefined)
→ 10µM*, 3.2µM*
CN(CCC1CCOCC1)C(=O)CC1C(=O)NCCN1Cc1c(F)cccc1Cl (centres undefined)
→ -9%, -10%
CC1CCN(C(=O)c2[nH]cnc2C(=O)N[C@H](C)c2ccccc2)CC1
→ -4%, i
CC(C)Nc1nc(NC(C)C)nc(Oc2ccc(=O)n(C)n2)n1
→ -3%, 10%
CCOc1ccccc1NC(=O)Nc1ccsc1C(=O)OC
→ 2%, -13%
CCCc1cc(=O)oc2cc(C)cc(OCC(=O)N3CCC(C(N)=O)CC3)c12
→ 11%, 9%
CN(CC(=O)NCc1ccc(F)cc1)S(=O)(=O)c1ccc2c(c1)c(=O)n(C)c(=O)n2C
→ 7%[7.34 µM], -5%[7.34 µM]
O=C(Nc1nncs1)c1cc(-c2ccncc2)nc2ccc(Cl)cc12
→ -6%, i
CCOC(=O)N1CCN(Cc2nc3cc(NC(C)=O)ccc3n2C)CC1
→ -9%, -8%
CCn1c(SCCC#N)nnc1-c1ccncc1
→ -5%, i
Cc1ccc2sc(NNC(=O)C3=COCCO3)nc2c1C
→ -16%, -17%
COc1ccc2c(C)c(CC(=O)NCc3ccc(C)cc3)c(=O)oc2c1OC
→ -2%, -8%
Cc1nn(-c2ccc(Cl)cn2)c2c1C(=O)CC(C)(C)C2Br (centres undefined)
→ -6%, -23%
Cc1cccc(C)c1NC(=O)CNC(=O)C1CC(=O)N(Cc2ccccc2)C1 (centres undefined)
→ 1%, -20%
CCOC(=O)c1nnc(-c2ccccc2)nc1Oc1ccccc1Cl
→ -14%, x
Cc1ccc(OCCCCn2c(CO)nc3ccccc32)cc1
→ -15%, -10%
Cc1ccc(S(=O)(=O)N(CC(=O)Nc2cccnc2)c2cc(Cl)ccc2C)cc1
→ -28%, -29%
CCN(CC)C(=O)[C@H]1C[C@H](CC(=O)NCCCOC)C(=O)N2CCc3c([nH]c4cc(CCC(=O)N(C)C)ccc34)[C@]12C
→ -10%, i
CCOC(=O)C(=O)Nc1nc(-c2ccccc2)c(CC)s1
→ -4%, -19%
